# Source: PubChem (National Center for Advancing Translational Sciences (NCATS))
# HSD17B inh – inhibitors of human HSD17B10 dehydrogenase; Q99714; recombinant HSD17B10, NADH fluorescence kinetic; many of its hits are not listed in these tables; Potency, µM (titrated, usually from 57.1 µM), without a hit: at the highest dose activity change, negative = inhibition, usual class: inhibitors; actives 7.6% (n = 75,000); AID 893; active = well fitted inhibition curve with a large enough effect; inconclusive = small, poorly fitted or top-dose-only effect; inactive = no such curve, though single readings can be large or run the other way;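 also: the protocol describes HADH2 (HSD17B10) and not the HSD17B4 of the title; nearly all actives have a fitted effect of over 70% in size; most hits overshoot -100% by far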
#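 Activity followed as NADH fluorescence increase (ex 360, em 450 nm) every 30 seconds for 4 min, using final 90 uM beta-hydroxybutyryl CoA and 1 mM NAD+. Recombinant His-tagged enzyme, 20 nM, pH 9.0 Tris buffer, 15 min compound preincubation.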
# An asterisk follows results filed as active; ? = inconclusive; [ ] = another dose, or the depositor's remark. % is scaled to controls: 0 for no effect and ±100 for the full control effect; potency is read from the fitted curve at half-maximal effect. This is a subset, so the mix of outcomes need not match the whole.
nr	SMILES	HSD17B inh
1	CSc1ccccc1C(=O)Nc1cccc(N(C)S(C)(=O)=O)c1	4%
2	COc1ccccc1CN1CCN(C(CC(C)C)c2nnnn2Cc2cccs2)CC1 (stereo unspecified)	-9%
3	COC(=O)Cn1c(C(=O)N2CCCC2)cc2c1C[C@H]1CN(C(=O)c3ccccc3)[C@@](Cc3ccccc3)(C(=O)OC)[C@@H]21	16%
4	O=C(Nc1cnn(Cc2ccc(Cl)cc2Cl)c1)c1noc2c1CCCC2	-9%
5	Cc1c(NC(=O)c2c(F)c(F)c(F)c(F)c2F)c(=O)n(-c2ccccc2)n1C	-7%
6	Cc1ccc(-c2c3c(=O)n(C)c(=O)n(C)c3c3c(C)cc(C)nn23)cc1	15%
7	CCc1ccc2c(c1)c1nc(C)sc1n2CC	6%
8	Cc1ccc(NC(=O)CC2NCCNC2=O)cc1 (stereo unspecified)	8%
9	CCn1c(=O)c(=O)[nH]c2cc(C(=O)N3CCN(c4ccccc4F)CC3)ccc21	?
10	O=C(CSc1nnc(CNC(=O)c2ccccc2F)o1)NCC1CCCO1 (stereo unspecified)	5%
11	Cc1cc(=O)[nH]c(SCC(=O)N2CCC(C(N)=O)CC2)n1	1%
12	OCCOc1ccc(C2=NCCO2)cc1	-3%
13	O=C(C1CCN(S(=O)(=O)c2ccc3c(c2)OCCO3)CC1)N1CCc2ccccc21	5%
14	CC1(c2ccc3noc(-c4ccccc4)c3c2)OCCO1	2%
15	O=C(Oc1ccc(OC(=O)c2ccncc2)cc1)c1ccncc1	?
16	S=c1[nH]ncn1/N=C/c1ccc(Br)cc1	-2%
17	c1ccc(CSc2nnc(-c3ccco3)n2Cc2ccccc2)cc1	-12%
18	O=C(c1ccccc1-c1ccccc1)N1CCOCC1	8%
19	Cc1nc(N2CCN(C)CC2)c2c(C)c(C(=O)Nc3ccc(F)cc3)sc2n1	-8%
20	CC(=O)N1[C@H](Cc2ccccc2)C=C[C@]1(C)C(=O)NCc1cc(F)cc(C(F)(F)F)c1	-2%
21	CC1=C(C(=O)OC(C)C)C(c2cccnc2)n2ncnc2N1 (stereo unspecified)	7%
22	COc1ccc2nccc(C(=O)O)c2c1	-2%[25.6 µM]
23	Cn1c(C(=O)N2CCN(c3ncccn3)CC2)cc2c(=O)n(C)c3ccccc3c21	-16%
24	N#Cc1nc(-c2ccc(Cl)cc2)oc1NCc1ccco1	13µM*
25	CCOCCCN(C(=O)Cn1nnc2ccccc21)C(C(=O)NCc1ccco1)c1ccncc1 (stereo unspecified)	-6%

# Pulled by compound from the list above:
nr	SMILES	HSD17B inh
24	N#Cc1nc(-c2ccc(Cl)cc2)oc1NCc1ccco1	13µM*
18	O=C(c1ccccc1-c1ccccc1)N1CCOCC1	8%

# Individual results from above.
# compound 17 in HSD17B inh shows -12%
# compound 16 in HSD17B inh shows -2%
# compound 19 in HSD17B inh shows -8%
# compound 7 in HSD17B inh shows 6%

# (further entries)
nr	SMILES	HSD17B inh
26	COc1cccc(NS(=O)(=O)c2ccc(S(=O)(=O)N3CCOCC3)cc2)c1	-9%
27	Cc1nnc2sc(-c3ccc(NC(=O)CSc4ccc(Cl)cc4)cc3)nn12	?
28	C/C(Cl)=C/Cn1c(NCCCn2ccnc2)nc2c1c(=O)[nH]c(=O)n2C	24%
29	O=C(C1CCN(S(=O)(=O)c2cccc3nsnc23)CC1)N1CCCc2ccccc21	2%
30	CC1CC(C)CN(c2ncc3c(n2)CC(c2ccccc2Cl)CC3=O)C1 (stereo unspecified)	-22%
31	COc1ccc(Cn2nnnc2C(c2ccccc2)N2CCN(C3CCCC3)CC2)cc1 (stereo unspecified)	8%
32	CCCCc1nc(SCC(=O)Nc2ccc(S(N)(=O)=O)cc2)n[nH]1	-3%
33	CN(C)c1nc2n(c(=O)n1)CCO2	13%
34	CC(C)N1C(=O)C2C(C(=O)NCc3ccccc3)C3C=CC2(O3)C1C(=O)NC(C)(C)C (stereo unspecified)	4%
35	C=CCN(CC(=O)NCC1CCCO1)C(=O)CCC(=O)Nc1cc(C)on1 (stereo unspecified)	3%
36	NC1(C(=O)NC2(C(=O)O)CCCC2)CCCC1	4%[11.4 µM]
37	COc1ccc(C(C)N2CC34C=CC(O3)C(C(=O)OCC(C)C)C4C2=O)cc1 (stereo unspecified)	11%
38	CC(N=Cc1cccc(O)c1O)c1ccccc1 (stereo unspecified)	-28%
39	Cc1ccc(NC(=O)CSc2nnc(COc3ccc(C#N)cc3)n2-c2ccccc2)cc1C	8%
40	COc1ccc(CNC(=O)c2ccc(NC(=O)C3CCCO3)cc2)cc1 (stereo unspecified)	-11%
41	Cc1cc(=O)n2nc(N3CCCC(C(=O)N4CCOCC4)C3)sc2n1 (stereo unspecified)	7%
42	COc1ccc(-c2noc(CCC(=O)NCCCN3CCC(Cc4ccccc4)CC3)n2)cc1	5%
43	Cc1ccc2c(c1)nnn2C1CCN(CC(=O)NCCc2nc3ccccc3[nH]2)CC1	2%
44	COC(=O)c1ccccc1NC(=O)c1cc(C2CC2)on1	5%
45	COC(=O)[C@H](CCSC)NC(=O)C/C=C\[C@@H](C)[C@@H](CO)OC	0%[11.4 µM]
46	OC1CCCN(Cc2cccc3ccccc23)C1 (stereo unspecified)	1%
47	CC(CN1CCCCC1)OC(=O)c1ccc2c(c1)OCO2 (stereo unspecified)	?
48	CC(c1ccccc1)n1cc(C(=O)NCc2ccccn2)nn1 (stereo unspecified)	10%
49	CS(=O)(=O)N1CCN(C(=O)c2ccncc2)CC1	10%
50	Cc1ccc(S(=O)(=O)N2CCN(C(=O)COC(=O)COc3ccccc3)CC2)cc1	3%

nr	SMILES	HSD17B inh
51	CC(=O)c1sc(NC(=O)c2ccccc2F)nc1C	-7%
52	NCC(O)COc1ccc2c(c1)OCO2 (stereo unspecified)	10%
53	COc1ccccc1CCn1c(=O)c(-c2ccc(F)c(F)c2)nc2cncnc21	?
54	CC(C)(C)c1ccc(C(=O)N2CCC(C(=O)NCc3ccncc3)CC2)cc1	-2%
55	CCCCOc1ccc(NC2=NC3(CCCC3)N=C(N)N2)cc1	-2%
56	FC(F)(F)c1ccccc1-c1ccc2ncnc(NCc3cccs3)c2c1	9%
57	CCC/C=C(\CCC)C(NS(=O)(=O)c1cccc2cccnc12)c1ccc(-c2ccccc2)cc1 (stereo unspecified)	-15%
58	C=C(C)C(O)/C=C/c1ccc(Br)cc1 (stereo unspecified)	-22%[11.4 µM]
59	Cn1c(CSc2nc3ccc(Br)cc3[nH]2)nc2ccccc21	-8%
60	O=C(O)/C=C\C(=O)Nc1ncn[nH]1	5%[11.4 µM]
61	Cc1ccc(C(=O)Nc2ccccc2C(=O)NCc2ccco2)cc1S(=O)(=O)N1CCCCC1	?
62	Cc1nc2cc(NC(=O)COc3ccc(C#N)cc3)ccc2n1-c1ccccc1	6%
63	c1ccc(-c2nc[nH]c2-c2ccccc2)cc1	-12%
64	O=C(CCn1c(=O)oc2ccccc21)Nc1nccs1	5%
65	N#CC(C(=O)Nc1cccc(Cl)c1)=C1Nc2ccccc2N1	25µM*
66	CCOc1ccc2nc(NC(=O)C(CCSC)NS(=O)(=O)c3cccs3)sc2c1 (stereo unspecified)	-10%
67	O=C1CCCC(=NCc2ccco2)C1	8%
68	CC1=C(C(=O)Nc2ccc(C)cc2)C(c2ccc(N(C)C)cc2)NC(=O)N1 (stereo unspecified)	6%
69	CC(C)CCn1c(CN2CCN(Cc3ccccc3)CC2)nc2c1c(=O)n(C)c(=O)n2C	-8%
70	O=C(O)CCCC(=O)Nc1ccc(C(=O)N2CCCCC2)cc1	5%
71	Cc1c(C(=O)OCc2ccccc2)[nH]c2c1C(=O)CC(c1ccco1)C2 (stereo unspecified)	?
72	CC1CCc2c(sc3nc(SCC(=O)NCc4ccco4)nc(N)c23)C1 (stereo unspecified)	-22%
73	COCCCNC(CC(=O)Nc1ccc(N(C)C)cc1)C(=O)O (stereo unspecified)	10%
74	Cn1c(=O)[nH]c(=O)c2c1nc(SCC(=O)Nc1ccccc1)n2Cc1ccccc1	-1%
75	COCC(=O)N1CCC2(CCCN(c3ccccn3)C2)CC1	32µM*

nr	SMILES	HSD17B inh
76	COc1ccc(C(OCCN2CCC[C@@H](C(=O)O)C2)(c2ccc(OC)cc2)c2ccc(OC)cc2)cc1	19%
77	COc1ccc(C(=O)Cn2nnc(-c3ccccc3NC(=O)C3CC3)n2)cc1	-2%
78	OC(COc1ccc2c(c1)CCC2)Cn1cnc2ccccc21 (stereo unspecified)	-4%
79	COc1cc(NC(=O)c2ccccc2)c(OC)cc1NC(C)=O	-2%
80	CCOc1ccccc1NC(=O)c1ccccc1N(C)S(C)(=O)=O	-3%
81	O=C(CCS(=O)(=O)c1ccc(Br)cc1)NCc1cccs1	4%
82	CC(=O)NCCNc1ncnc2ccc(-c3ccccc3C(F)(F)F)cc12	10%
83	CC(=O)NCCn1c(SCC(=O)c2ccccc2)nc2ccccc2c1=O	-2%
84	CCOC(=O)c1[nH]cnc1C(=O)Nc1ccccn1	3%
85	Cn1c(=O)c2c(nc(SCc3cccnc3)n2Cc2ccccc2)n(C)c1=O	0%
86	c1ccc(CN2CC[C@@H](CNc3ncnc4ccccc34)C2)cc1	13%[11.4 µM]
87	Cc1ccc(OCC(=O)n2nc(C)cc2C)c(Br)c1	15%
88	CC(=O)OC(C)=O	5%
89	CSc1cnn(-c2ccccc2)c(=O)c1SC	-3%
90	CCOC(=O)Cn1c(=O)c2c(nc3n2CCS3)n(C)c1=O	1%
91	O=S1(=O)CCN2C(Cc3ccc(SC(F)F)cc3)=CSC2=N1	-10%
92	CC(=Nc1ccc2c(c1)nc(CO)n2C)C1=C(O)CC(C)(C)CC1=O	21%
93	CC(=O)c1c(Nc2ccc3c(c2)OCCO3)oc(C)cc1=O	0%
94	Cc1ccc(SCc2cc(=O)n3[nH]c(C)nc3n2)cc1	3%
95	CCOc1ccc(NC(=O)C2CC(=O)N(C)C(=Nc3ccc4c(c3)OCO4)S2)cc1 (stereo unspecified)	8%
96	O=C(CN1CCN(c2ccccn2)CC1)N1c2ccccc2Sc2ccc(C(F)(F)F)cc21	9%
97	C=CCSc1nnc(-c2cccnc2)o1	8%
98	Cc1cccc(OCC(O)Cn2c(=N)n(CCN3CCCCC3)c3ccccc32)c1 (stereo unspecified)	1%
99	COc1ccc(CC(=O)OCc2cc3ccc(C)cc3[nH]c2=O)cc1	-29%
100	O=C1CC(c2cccs2)CC2=C1C(c1ccccc1)n1ncnc1N2 (stereo unspecified)	25µM*

# Grouped by structure, the entries above with a tert-butyl group
nr	SMILES	HSD17B inh
34	CC(C)N1C(=O)C2C(C(=O)NCc3ccccc3)C3C=CC2(O3)C1C(=O)NC(C)(C)C (stereo unspecified)	4%
54	CC(C)(C)c1ccc(C(=O)N2CCC(C(=O)NCc3ccncc3)CC2)cc1	-2%

# (list continues)
nr	SMILES	HSD17B inh
101	COc1ccc(-c2cc(C(=O)NCc3ccc(Cl)cc3)no2)cc1OC	-11%
102	N#Cc1c(-c2ccco2)cc(-c2ccccn2)nc1N	11%
103	O=C(NCc1cccnc1)c1cccc(F)c1	-2%
104	COc1ccccc1NC(=O)CN1CCN(CC(=O)Nc2ccc3c(c2)OCO3)CC1	-3%
105	CC(=O)Nc1nc(C)nc(-c2ccccc2OC(C)=O)n1	-13%
106	Cc1ccc(-c2csc3nnc(SCc4csc(C)n4)n23)cc1	4%
107	CN(CC(=O)NC1CCCCC1)S(=O)(=O)c1cccc2cccnc12	5%
108	Cc1ccc(Cl)cc1N	4%
109	Clc1ccc(OCCn2ccnc2)c2ccccc12	-1%
110	O=C(Nc1ccc(S(=O)(=O)N2CCOCC2)cc1)c1cccs1	-5%
111	O=S(=O)(NC1CCCCC1)c1ccc(S(=O)(=O)N2CCN3CCCC3C2)cc1 (stereo unspecified)	-6%
112	CCC(=O)NCCc1cc2ccc(C)c(C)c2[nH]c1=O	?
113	Fc1ccc(-c2nnc(CN3CCC(c4nc5ccccc5s4)CC3)o2)cc1	1%
114	COCCNC(=O)Cn1cnc2c1c(=O)n(C)c(=O)n2C	1%
115	CN1CCC[C@@H](CC2c3ccccc3Sc3ccccc32)C1	-7%[25.6 µM]
116	CN(C)C(=O)[C@]1(C)C[C@H]1[C@H](NC(=O)CNC(=O)[C@@H]1CCCN1C(=O)[C@]1(C)C[C@H]1[C@H](NC(=O)OCc1ccccc1)c1ccccc1)c1ccccc1	-17%
117	Cc1cccc(OCCC(=O)NCC(c2ccccc2)N(C)C)c1 (stereo unspecified)	6%
118	O=C(O)c1cc2cc(Cl)ccc2[nH]1	-6%
119	CCOC(=O)c1cnc2c(C#N)c(C)nn2c1C	25µM*
120	CSC1=C(C#N)C(c2ccccc2C)C(C#N)=C(N)N1 (stereo unspecified)	93%[activator]
121	COc1ccc(C2(C(=O)NCCN3CCOCC3)CCOCC2)cc1	12%
122	Nc1nc(SCC(=O)NCc2ccco2)[nH]c(=O)c1-c1ccccc1	7%
123	CC1=C(C(=O)OC2CCCCC2)C(c2ccc(C)o2)C2=C(CC(C)(C)CC2=O)N1 (stereo unspecified)	-5%
124	CCc1cccc(NC(=O)CN(C)S(=O)(=O)c2cccc3nsnc23)c1	2%
125	O=C(O)C(Cc1ccccc1-c1ccccc1)C(=O)O	5%[11.4 µM]

nr	SMILES	HSD17B inh
126	CCN1CCN(CC(O)COCc2ccccc2)CC1 (stereo unspecified)	1%
127	O=C(Nc1ccc2c(c1)OCCO2)C1CCN(C(=O)c2ccc(F)cc2)CC1	-1%
128	CN(CC(=O)N1CCN(c2ccccn2)CC1)S(=O)(=O)c1ccc(Br)cc1	?
129	Nc1nnnn1/N=C/c1ccccc1C(F)(F)F	?
130	Cc1ccc(S(=O)(=O)NC(=O)Nc2ccc(Cl)cn2)cc1	-9%
131	COc1cc(/C=N/NC(=O)c2cc(-c3ccccc3)n[nH]2)ccc1O	-12%
